# Screening results (PubChem BioAssay)
# gsp ag – qHTS for Agonist of gsp, the Etiologic Mutation Responsible for Fibrous Dysplasia/McCune-Albright Syndrome: qHTS | Potency, µM (titrated, usually from 76.9 µM), without a hit: top-dose activation (cAMP increase), usual class: activators | 340,000 tested, 0.13% active | AID 624287, 2012 | gsp mutant cells, cAMP HTRF, 30 min; control for the full effect not named in the record; active = well fitted activation curve with a large enough effect; inconclusive = small, poorly fitted or top-dose-only effect, or another doubt; inactive = no such curve, though single readings can be large or run the other way; cell line not stated here;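 further: phosphodiesterase inhibitor Ro 20-1724 added with compounds to block cAMP breakdown; potency means the concentration at half of the fitted maximal effect; nearly all actives have a fitted effect of over 60% in size; about a fifth of the inactives were tested at one dose only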
#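 Cells stably selected in G418 were plated at 2000/well, grown 16-24 hr, then given compounds in DMSO with the PDE inhibitor […] (300 uM solution added) for 30 min at 37C; cAMP was read by HTRF.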
# TRPML1 inh – qHTS for Inhibitors of the Human Mucolipin Transient Receptor Potential 1 (TRPML1); Mucolipin-1 (Homo sapiens), Q9GZU1; AID 624415, 2012; 390,000 tested, 0.02% active; activity change, negative = inhibition, % (concentration not given with the values); TRPML1-inducible cells, Ca2+ dye fluorescence, FDSS; hits give low values; inhibition of EC80 agonist-evoked calcium signal; in the data active means activity change below about -50%; inconclusive means about -30% to -50%; inactive means above about -30%;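 further: stimulus is agonist 54-4 at its EC80 concentration; on the % scale 0 is the no-effect control and ±100 the full control effect; compound concentration not given in the record; the text of the record puts the active cut at -80%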
# Target sequence (Q9GZU1 whole entry, looked up): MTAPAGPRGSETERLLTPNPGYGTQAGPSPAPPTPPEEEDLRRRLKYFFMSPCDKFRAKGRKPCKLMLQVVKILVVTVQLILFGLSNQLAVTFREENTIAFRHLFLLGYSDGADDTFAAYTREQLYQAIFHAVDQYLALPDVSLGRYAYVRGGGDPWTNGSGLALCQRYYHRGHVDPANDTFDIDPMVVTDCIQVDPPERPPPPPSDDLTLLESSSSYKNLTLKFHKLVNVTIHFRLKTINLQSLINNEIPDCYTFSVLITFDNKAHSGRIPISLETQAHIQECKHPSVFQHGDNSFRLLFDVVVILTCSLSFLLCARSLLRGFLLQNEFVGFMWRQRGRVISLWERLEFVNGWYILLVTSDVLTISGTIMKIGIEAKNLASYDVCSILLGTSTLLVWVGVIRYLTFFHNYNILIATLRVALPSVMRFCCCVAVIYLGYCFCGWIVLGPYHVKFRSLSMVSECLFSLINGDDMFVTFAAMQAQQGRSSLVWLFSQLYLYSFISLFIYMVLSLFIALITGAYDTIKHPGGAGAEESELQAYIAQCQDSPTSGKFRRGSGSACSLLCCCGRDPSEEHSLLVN
#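 TRPML1-DL cells, Tet-induced overnight (~16 h, 37 °C) at 1,500 cells/well, were loaded with Ca8 no-wash dye plus quencher for 45-90 min at room temperature. Compounds were pinned during FDSS kinetic reading; agonist 54-4 at EC80 (4 uM final) then added.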
# TRPML1 ag – qHTS for Agonists of the Human Mucolipin Transient Receptor Potential 1 (TRPML1); activation, % (test concentration not listed); TRPML1-expressing cells, Ca2+ dye fluorescence, FDSS; host cell line not named in the record; reference of the full effect not given here; 410,000 tested, 0.12% active; Mucolipin-1 (Homo sapiens), Q9GZU1; in the data active = activation above about 50%; inconclusive = about 30% to 50%; inactive = below about 30%; further: 0% is about no effect; the text of the record puts the active cut at 80%
#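 Tetracycline-induced TRPML1-DL cells are seeded and incubated overnight before loading with a no-wash Ca2+ dye and quencher. Agonist activity is taken from the 110 s fluorescence read following compound pin-transfer on an FDSS, before EC80 54-4 challenge.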
# gsp antagonist – qHTS for Antagonists of gsp, the Etiologic Mutation Responsible for Fibrous Dysplasia/McCune-Albright Syndrome: qHTS. gsp-mutant cells, cAMP HTRF, 30 min; control for the full effect not named in the record. Potency, µM (doses to about 76.9 µM), for the others: at the top dose activity change, negative = inhibition, hits mostly inhibitors. 340,000 tested, 0.4% active; active = falling curve of any shape with a large fitted effect; inconclusive = falling curve, mostly with a smaller effect; inactive = flat or rising curve; cell line not stated here;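 further: intracellular cAMP measured with PDE inhibitor Ro 20-1724 present during compound exposure; potency means the concentration at half of the fitted maximal effect; on the % scale 0 is the no-effect control and ±100 the full control effect; nearly all actives have a fitted effect of over 65% in size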
#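 Cells in G418 medium, seeded 16-24 h, 37C; buffer exchange to DPBS + 1 mM CaCl2, 0.5 mM MgCl2, 0.05% BSA; cpds in DMSO + […] (300 uM stock), 30 min 37C; HTRF cAMP detection.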
# ClpP mod – qHTS Assay for Activators of ClpP. 340,000 tested, 1.9% active. ATP-dependent Clp protease proteolytic subunit (Bacillus subtilis (strain 168)), P80244. Potency, µM (series often up to 57.5 µM), for inactives: at the highest dose activity change, negative = active. purified B. subtilis ClpP, FRET peptide cleavage, 20 min. AID 651965, 2013; active = well fitted falling curve with a large enough effect; inconclusive = small, poorly fitted or top-dose-only effect; inactive = no such curve, though single readings can be large or run the other way; further: potency means the concentration at half of the fitted maximal effect; the source files actives as falling curves though it sought activators and does not explain the sign; nearly all actives have a fitted effect of over 65% in size; many hits overshoot -100%
# Target sequence (P80244 whole entry, looked up): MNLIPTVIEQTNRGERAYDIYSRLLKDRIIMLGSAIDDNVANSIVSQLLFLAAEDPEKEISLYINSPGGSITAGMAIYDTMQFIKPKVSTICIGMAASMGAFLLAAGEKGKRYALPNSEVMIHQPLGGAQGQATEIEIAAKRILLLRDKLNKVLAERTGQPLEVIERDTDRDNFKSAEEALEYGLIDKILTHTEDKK
#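 FRET quenching reversal measured ClpP activation: 10 microg/mL B. subtilis ClpP at pH 8 with the FRET-FV decapeptide, read at 430 nm after 320 nm excitation. The 20-min minus 0-min signal was scaled between DMSO/no-enzyme wells and ADEP (5.8 microM final).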
# Menin-MLL FL inh – qHTS Assay for Inhibitors Targeting the Menin-MLL Interaction in MLL Related Leukemias: Competition With Fluorescein Labeled MLL-derived Peptide | Fluorescence polarization, fluorescein-MLL peptide displacement from menin | FP activity change, % at 61.4 µM | 290,000 tested, under 10 active; inconclusive = falling polarisation curve, or a change in total fluorescence; inactive = total fluorescence flat and polarisation flat or rising; no compound was filed as active; the % refers to the polarisation; negative = inhibition;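 further: % of control where 0% means no effect; inhibitors lower the polarisation; unlabelled MLL peptide was the positive control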
# An asterisk follows results filed as active; ? = inconclusive; · = not tested or not shown; & = joins results of further samples; [ ] = dose if it differs, or a comment.
# Value order: TRPML1 inh | gsp ag | TRPML1 ag | Menin-MLL FL inh | ClpP mod | gsp antagonist
C[C@@H]1COC(=O)[C@@H](CC(=O)OC(C)(C)C)C/C=C\C[C@H](CC(=O)NCCO)C(=O)N1
    -13 | -26% | 0.1 | · | 1.5% | 12%
COc1ccc(OC)c(NC(=O)c2cccnc2)c1
    0 | 6% | 0.1 | -0.2 | · | 6%
Nc1c(C(=O)Nc2cccc(F)c2)nnn1-c1ccc2c(c1)OCCO2
    16 | -13% | 0.2 | -0.4 | · | 5%
Cc1ccc(N2C(=O)C(CC(=O)Nc3cccc(F)c3)N(CCc3ccccc3F)C2=O)cc1 (stereo not drawn)
    10 | · | 0.3 | · | -0.3% | ·
Cc1ccc(S(=O)(=O)N(C)CC(=O)Nc2nnc(CC(C)C)s2)cc1
    7 | 17% | 0.6 | · | 0.3% | -22%
COc1cc(NC(=O)Cn2nnc(-c3ccccc3N)n2)cc(OC)c1
    5 | ? | 0.7 | 9.3 | -0.9% | -10%
CN(C(=O)c1ccc(N2CCCCC2)c([N+](=O)[O-])c1)C1(C)CCS(=O)(=O)C1 (stereo not drawn)
    16 | 3%[15.4 µM] | 0.1 | · | -3.8% | -22%
COc1cccc(CN(C)C(=O)C2CCCN(C(=O)c3ccc(Cl)cc3)C2)c1 (stereo not drawn)
    5 | ? | -1.1 | · | 3.7% | ·
N#CC(c1ccc(F)cc1)c1ccc(C(=O)c2ccccc2)cc1 (stereo not drawn)
    32 | -4% | 2.4 | 3.1 | 0.3% | 18%
CCSc1n[nH]c2nc3c(c(=O)n12)C1(CCCCC1)Cc1ccccc1-3
    -7 | 18% | 1.1 | 3.7 | ? | -8%
CN(CC(=O)N1CCN(c2ccccc2)CC1)C1CCCc2ccccc21 (stereo not drawn)
    -16 | -34%[inhibitor] | 1.8 | 5.6 | · | -6%
COc1ccc(C(=O)NCC(=O)NCCc2c[nH]c3ccccc23)cc1OC
    -5 | 2%[15.4 µM] | 1.2 | -2.3 | · | 5%
CC(C)CNC(=O)c1ccccc1NC(=O)c1ccccc1N(C)S(C)(=O)=O
    5 | -1% | -0.8 | 5.1 | 1.0% | 3%
CC(=O)Nc1ccc(OCC(O)CNC2CCCC2)cc1 (stereo not drawn)
    11 | -25% | -0.4 | -5.8 | -0.8% | 2%
O=C(O)c1cc(-c2cccc(Cl)c2)nc2nc(N3CCCCC3)sc12
    -3 | ? | -0.9 | 0.6 | -7.4% | -19%
COc1ccc(/C=C/C(=O)OCC(=O)NC(C)CCc2ccccc2)cc1 (stereo not drawn)
    32 | -26% | 3.2 | · | -1.5% | ?
O=C1CCC/C=C/C[C@@H](CC(=O)N(CCO)Cc2ccccc2)C(=O)NC[C@@H](c2ccccc2)O1
    -4 | 27% | -0.8 | · | -3.4% | 4%
C[C@H](CO)N1C[C@H](C)[C@@H](CN(C)S(=O)(=O)c2ccc(F)cc2)OCc2cn(nn2)CCCC1=O
    -6 | -18% | -0.3 | · | 0.4% | ·
CCN(CC)Cc1c(O)ccc2cc(-c3nc4ccccc4n3C)c(=O)oc12
    -8 | -2%[15.4 µM] | 15 | ? | 6.2% | -1%
CCCNC(=S)N1CCC(c2nc3cc(C)c(C)cc3[nH]2)CC1
    8 | 14% | -0.4 | -1.5 | -0.4% | 1%
O=C(O)c1cnc(-c2ccccc2)nc1Oc1ccccc1
    -7 | ? | 0.9 | -1.1 | · | -14%
O=c1oc(CCCO)cc2ccc(C#CC3(O)CCCCC3)cc12
    -26 | 5% | 0.5 | · | 4.0% | 3%
Cc1ccc(NS(=O)(=O)c2ccc(-c3coc(C)n3)cc2)c(Br)c1
    -2 | 19% | -0.9 | 1.0 | -0.7% | -8%
COc1ccc(CC(=O)NC(C)c2nnc(SCCOc3ccc(OC)cc3)n2C)cc1 (stereo not drawn)
    -8 | -2% | 2.1 | 3.7 | -2.9% | -9%
O=C(NCCc1c[nH]c2ccccc12)c1cnc2sccn2c1=O
    -15 | 16% | 0.5 | 0.5 | -4.8% | 10%
COc1ccc(S(=O)(=O)N(c2onc(C)c2Cl)S(=O)(=O)c2ccc(OC)cc2)cc1
    10 | 5% | 0.2 | 1.6 | -3.3% | -6%
O=[N+]([O-])c1ccc(/C=N/N/C(=N/c2ccccn2)c2ccccn2)cc1
    0 | -15% | 0.2 | 0.4 | 1.7% | -2%
CSc1ccccc1NC(=O)CN(C)C(=O)C1CCN(C(=O)Nc2ccccc2)CC1
    -22 | 5%[15.4 µM] | -0.6 | · | · | -4%
Cc1ccc(S(=O)(=O)CCNC(=O)Cc2ccc(Cl)cc2)cc1
    4 | 0%[15.4 µM] | 0.6 | 5.2 | · | ·
CCNC(=O)c1cnc2c(-c3ccccc3)c(C)nn2c1C
    8 | · | -0.3 | · | 0.8% | ·
Cc1cc(NS(=O)(=O)c2ccc(NC(=O)CN3C(=O)c4ccccc4C3=O)cc2)nc(C)n1
    15 | 8% | -0.1 | 1.7 | -2.5% | -9%
COC(=O)C(CC(C)C)NC(=O)/C=C/c1ccc(Cl)cc1 (stereo not drawn)
    -14 | -3%[15.4 µM] | 2.1 | 1.4 | · | -2%
Cc1cc(C)n(CCN(C)C(=O)C2CCC(=O)N(CCc3cccc(F)c3)C2)n1 (stereo not drawn)
    -16 | 10% | -0.2 | · | -2.4% | 10%
Brc1ccc(C[n+]2ccccc2)cc1
    5 | -12% | 0.2 | · | 0.6% | 6%
O=C(CCn1c(=O)oc2ccccc21)Nc1cccc(Br)c1
    -2 | -4%[15.4 µM] | -0.7 | 3.4 | 0.8% | 1%
Cc1ccccc1CN1CCN(S(=O)(=O)c2ccc(Cl)s2)CC1
    14 | 1% | 2.3 | · | -1.0% | -24%
Cc1nn(-c2ccccc2)c(C)c1/C=N/NC(=O)CSc1nnc(SCc2cccc3ccccc23)s1
    16 | 28% | 1.0 | 5.1 | -1.4% | -3%
CCCCOc1ccc(C(=O)NCCc2csc3nc(-c4ccccc4F)nn23)cc1
    -27 | · | 3.6 | · | 1.3% | ·
CCOc1ccc(C(=O)O/N=C(\N)c2ccccn2)cc1OCC
    -12 | 5% | 1.2 | · | 0.1% | -1%
O=C(C1CCN(C2CCN(C/C(Cl)=C/c3ccccc3)CC2)CC1)N1CCOCC1
    19 | -24% | 0.6 | -6.5 | -1.1% | 12%
CCCCC(=O)O[C@]1(C(=O)CO)CC[C@H]2[C@@H]3CCC4=CC(=O)CC[C@]4(C)[C@H]3[C@@H](O)C[C@@]21C
    -3 | · | 1.0 | 1.0 | 0.7% | -9%
O=C(Cn1c(=O)c2cccn2c2ccccc21)NCc1ccccc1F
    -11 | · | 0.9 | · | ? | ·
O=C(NCc1ccco1)C1CCCN1C(=O)Nc1ccc(Cl)cc1 (stereo not drawn)
    10 | 0% | 0.2 | 0.0 | -2.6% | 7%
O=C(c1ccc2c(c1)N(Cc1ccc(F)cc1)C(=O)c1ccccc1S2=O)N1CCOCC1 (stereo not drawn)
    -6 | · | -0.2 | · | -1.2% | ·
COc1ccc(-c2cc(CNC(=O)CCl)on2)cc1
    2 | -4% | -0.7 | 4.4 | -30% | 0%
CC(C)Nc1ncnc2c1ncn2[C@H]1CN(CCN2CCOCC2)C[C@@H](CO)O1
    -4 | · | 0.2 | · | 1.9% | ·
Cc1ccc(-c2c(C(=O)NCc3ccccc3)oc(=O)c3ccccc23)cc1
    42&-29 | 10% | 1.8&2.8 | -1.4 | -1.6%&-1.0% | -15%
O=C(CC1SC(=Nc2ccccc2)N(CCc2ccccn2)C1=O)Nc1ccc(F)cc1 (stereo not drawn)
    -20 | 9% | 3.4 | -0.4 | 30% | -15%
O=C(COC(=O)c1c(Cl)cccc1Cl)Nc1cc(Cl)ccc1Oc1ccccc1
    43 | -16% | 1.9 | 2.1 | -1.1% | -7%
CC(OC(=O)c1ccncc1)C(=O)Nc1ccc([N+](=O)[O-])cc1Cl (stereo not drawn)
    20 | 3% | 0.5 | 0.9 | -0.7% | -6%
CCc1ccc(S(=O)(=O)c2nnn3c2nc(NCc2cccs2)c2sccc23)cc1
    13 | · | 1.4 | · | 28µM* | ·
O=C(N[C@@H](Cc1ccccc1)C(=O)OCc1ccccc1)c1nc[nH]c1C(=O)NC1CCNCC1
    -2 | · | 0.3 | · | -1.2% | 16%
CC(c1ccccc1)C1CC(=O)N(c2cc(Cl)ccn2)C1=O (stereo not drawn)
    10 | -8%[15.4 µM] | -0.3 | 1.9 | · | 12%
CCN1CC(CN(C)Cc2nc(-c3ccc(Cl)cc3)no2)CC1=O (stereo not drawn)
    19 | 21% | -0.7 | -1.4 | -1.6% | -4%
COCc1c(C(=O)N(C)Cc2ccccc2N2CCCC2)oc2ccccc12
    10 | -11%[15.4 µM] | 2.1 | · | -4.4% | -13%
O=C(Cc1cccs1)Nc1cccnc1
    -3 | 2% | -0.2 | 5.2 | 0.3% | -3%
Cn1ncc2c(N3CCN(c4ccccc4F)CC3)ncnc21
    9&-6 | -37%[inhibitor] | -0.1&0.4 | 5.3 | -2.5%&-1.8% | 0%
CCc1nc(N2CCCCC2C)c2oc3ccccc3c2n1 (stereo not drawn)
    -14 | 16% | 1.3 | -0.5 | ? | -13%
COc1ccc(CNS(=O)(=O)NCc2ccccc2)cc1OC
    -5 | -1% | -0.5 | 1.8 | · | 1%
CCOc1ccc(N/C=C/C(=O)c2cc(OC)c(OC)c(OC)c2)cc1
    -23 | 28% | -0.2 | 6.7 | -3.9% | -3%
CCc1ccc(NC2=CC(=O)CC(c3ccco3)C2)cc1 (stereo not drawn)
    -22 | 4% | 0.0 | 6.5 | -2.6% | -8%
COc1cccc(Cn2c(=O)cc(C)c3c(C)nn(C)c32)c1
    5 | · | 2.9 | · | -11% | ·
Cc1ccc(C(=O)CCC(=O)NCc2ccc(Cl)cc2)cc1
    -15 | -32%[inhibitor] | 0.0 | · | -0.6% | 2%

# Sorted by count of non-hydrogen atoms (low to high): some entries from above
# Value order: TRPML1 inh | gsp ag | TRPML1 ag | Menin-MLL FL inh | ClpP mod | gsp antagonist
Brc1ccc(C[n+]2ccccc2)cc1
    5 | -12% | 0.2 | · | 0.6% | 6%
COC(=O)C(CC(C)C)NC(=O)/C=C/c1ccc(Cl)cc1 (stereo not drawn)
    -14 | -3%[15.4 µM] | 2.1 | 1.4 | · | -2%
CCc1ccc(S(=O)(=O)c2nnn3c2nc(NCc2cccs2)c2sccc23)cc1
    13 | · | 1.4 | · | 28µM* | ·
